RecA intein inh: Mtb RecA intein splicing inhibition. P9WHJ3. cell-free RecA intein splicing, fluorescence. inhibition, %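 (about 9 µM by stock and volumes)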. hit rate 0.75% among 290,000. AID 2221; in the data active means inhibition above about 30%;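 further: 0% = vehicle wells and 100% = reference inhibitor control wells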
Target sequence (P9WHJ3 whole entry, looked up): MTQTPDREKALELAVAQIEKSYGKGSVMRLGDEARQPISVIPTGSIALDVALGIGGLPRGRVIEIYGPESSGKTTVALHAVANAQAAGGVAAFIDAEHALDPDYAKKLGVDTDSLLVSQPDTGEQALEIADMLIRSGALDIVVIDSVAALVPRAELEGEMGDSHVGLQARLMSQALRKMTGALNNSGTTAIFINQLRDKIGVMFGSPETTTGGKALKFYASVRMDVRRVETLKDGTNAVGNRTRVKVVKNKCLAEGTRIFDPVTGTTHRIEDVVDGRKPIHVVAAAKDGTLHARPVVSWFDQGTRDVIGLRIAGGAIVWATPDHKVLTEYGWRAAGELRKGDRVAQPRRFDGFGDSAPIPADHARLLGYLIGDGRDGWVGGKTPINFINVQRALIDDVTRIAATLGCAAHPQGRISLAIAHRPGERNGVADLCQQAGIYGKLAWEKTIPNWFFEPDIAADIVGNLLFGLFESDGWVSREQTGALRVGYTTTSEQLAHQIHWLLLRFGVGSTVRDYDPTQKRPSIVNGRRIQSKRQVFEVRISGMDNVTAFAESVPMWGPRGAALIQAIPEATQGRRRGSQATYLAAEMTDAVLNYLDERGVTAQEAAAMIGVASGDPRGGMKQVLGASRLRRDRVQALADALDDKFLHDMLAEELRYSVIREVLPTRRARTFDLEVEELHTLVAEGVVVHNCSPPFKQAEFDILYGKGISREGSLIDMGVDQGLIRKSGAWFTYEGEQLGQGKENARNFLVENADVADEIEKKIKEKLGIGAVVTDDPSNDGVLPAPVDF
Mtb betalactam: beta-lactam sensitization of Mtb H37Rv; M. tuberculosis H37Rv growth with meropenem, percent inhibition; hits of this screen are not shown here; inhibition, % at 25 µM; hit rate 0.27% among 330,000;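 active means about 74% or more and at least 40 points above the plate without the antibiotic, then above 30% in a dose series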;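 further: growth measured after seven days incubation then overnight dye step; 0% = bacteria only wells and 100% = bacteria with antibiotic; twin plates without the antibiotic show which effects depend on it; some results filed as inactive read as strong as hits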
Arbovirus anti: arbovirus infection inhibition; arbovirus infection cell-based antiviral screen; inhibition, % at 10 µM; hit rate 0.37% among 200,000; AID 1251;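 active means inhibition from about 30%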;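 further: bluetongue infection of BSR cells; cell survival read as ATP light after 72 h; 0% = infected wells without compound and 100% = uninfected wells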
YopH PTP inh: blocks Yersinia enterocolitica YopH tyrosine phosphatase | fluorescence Ex485/Em525 | inhibition, %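 (about 10 µM by stock and volumes)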 | hit rate 0.16% among 140,000 | AID 898;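 active means inhibition of 50% or more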;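 further: controls were vehicle for no effect and minimum signal wells for full effect; inactives centre near -20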
Mtb H37Rv: M. tuberculosis H37Rv growth inhibitors, H37Rv strain (AID 1626); M. tuberculosis H37Rv growth inhibition; higher % means a stronger effect; hit rate 0.95% among 220,000; one-dose inhibition, % at 10 µM; IC50 in µM for titrated hits;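 active means confirmed in a dose series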;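 further: bacteria incubated seven days before Alamar blue readout; 0% = bacteria only wells and 100% = bacteria with antibiotic wells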
Arbovirus anti repeat: second read-out of Arbovirus anti, no call of its own (marks repeat the call); inhibition, %; measured here: 10K subset replicate screen; many hits read low in the repeat;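 first of two repeat runs on a subset; 0% = infected and 100% = uninfected wells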
The depositor's hits bear a star; x = not tested or not shown. Not all compounds are listed; the hit share may differ from the screen's.

SMILES | RecA intein inh | Mtb betalactam | Arbovirus anti | YopH PTP inh | Mtb H37Rv | others
Cc1nn(C)c(=O)n1-c1ccccc1 | -1.5 | 5.8 | 11.3 | x | -2.1%
COc1ccc2[nH]c(C(=O)O)c(CCC(=O)O)c2c1 | 2.3 | -7.6 | 2.1 | 15.2 | -2.2%
Cc1nn(C(=O)CCCC(=O)NCc2ccccc2)c2ccccc12 | 2.7 | 7.4 | x | x | x
O=C(CN1CCN(C(=O)c2cccc(F)c2)CC1)Nc1ccccc1F | -4.3 | -12.2 | -2.5 | -3.0 | -11.6%
CCC(c1nnnn1Cc1cccs1)N1CCN(c2nc3ccccc3s2)CC1 (stereo unspecified) | 12.5 | -6.8 | 25.7 | -21.3 | 11.1%
Cc1ccc(Nc2ncc3c(n2)CC(c2ccco2)CC3=O)c(C)c1 (stereo unspecified) | 6.1 | -1.6 | -5.2 | -53.9 | 13.2%
COc1cccc(NC(=O)CSc2ncnc3c2oc2ccccc23)c1 | -0.2 | 1.6 | -3.7 | -43.7 | 1.7% | Arbovirus anti repeat=3.1
O=C(CCn1c(=O)oc2ccccc21)NCCC1=CCCCC1 | 0.0 | -6.2 | x | x | -0.8%
O=C(CSc1nnc(CNC(=O)c2cccs2)o1)Nc1ccc(Cl)cc1 | 0.2 | 2.4 | x | x | x
CCCCC(CC)CN1C(=O)/C(=C/c2ccncc2)SC1=S (stereo unspecified) | 4.4 | 2.6 | -41.6 | -38.3 | 6.8%
O=C1c2ccccc2-c2ccc(C(=O)N3CCCCC3)cc21 | -0.3 | -18.7 | -8.8 | x | 4.6%
COc1cc2c(cc1OC)C(c1ccc(Cl)cc1)CC(=O)N2 (stereo unspecified) | 0.8 | -2.6 | x | x | x
CCc1ccc(C(=O)CN2CCSC2=N)cc1 | 1.2 | -0.2 | -3.1 | -29.6 | 3.3%
CCn1c(CC(=O)Nc2ccc(F)cc2)nnc1SCC(=O)Nc1nncs1 | 3.3 | -1.4 | x | x | x
CC(C)=CCCC1=CCC(/C(C)=N/NC(N)=O)CC1 (stereo unspecified) | 1.3 | x | 3.5 | -30.0 | -3.2%
COC(=O)c1ccc(Cc2ccccc2)o1 | -0.1 | -6.6 | -4.3 | 20.2 | -0.1%
CCC(C)NC(=O)[C@H]1N2C(=O)c3ccccc3C2SC1(C)C (stereo partly specified) | 2.5 | 0.9 | x | x | x
CCCCc1n[nH]c2c1/C(=N/O)CC(C)(C)C2 | x | -12.6 | -1.6 | -3.2 | -2.0%
Cc1cc2n(n1)C(c1sccc1C)Nc1ccccc1-2 (stereo unspecified) | 0.2 | 3.9 | 2.0 | -38.2 | 1.4%
O=C1C2C3C=CC(O3)C2C(=O)N1CC(O)c1ccccc1 (stereo unspecified) | -0.3 | -18.7 | 1.7 | 14.3 | -0.1%
CN1/C(=C\C(=O)COc2ccc3c(c2)OCO3)C(C)(C)c2ccccc21 | 8.9 | 52.6 | 17.0 | -49.5 | x
CCOC(=O)c1ccccc1OCc1cc(/C=N/NC(=O)c2cccnc2)ccc1OC | 2.0 | 87.5 | x | x | -1.9%
O=C(N/N=C1\C2CN3CCN(C2)CC1(c1ccccc1)C3)Nc1ccccc1 | 0.3 | -1.8 | -2.6 | x | 2.8%
CCc1ccc(CNC(=O)CCc2cn(C)c3ccccc23)cc1 | 1.5 | 0.0 | x | x | x
O=C1CCCC2=C1C(c1cn(-c3ccccc3)nc1-c1cccs1)c1c([nH]c(=O)[nH]c1=O)N2 (stereo unspecified) | 1.4 | 1.8 | 0.2 | -4.1 | -9.9% | Arbovirus anti repeat=-0.9
CCCN=C1NC(=O)C(CC(=O)NCCc2ccccc2)S1 (stereo unspecified) | -0.5 | 2.1 | 1.1 | x | 1.4%
COc1ccc(/C=C(/NC(=O)c2ccc(C)cc2)c2nc3ccccc3[nH]2)cc1OC | 2.1 | -4.6 | 5.9 | 13.9 | 7.7%
Cc1ccc(C(=O)Nc2cccc(-c3ccc(N4CCOCC4)nn3)c2)cc1C | 2.0 | -5.2 | x | x | x
Cc1nc2ccc(F)cc2cc1C(=O)NCc1ccco1 | -1.3 | -0.1 | 7.1 | -1.0 | -11.8%
CC1CCCN(C(=O)c2cc(N3C(=O)C4C5CCC(C5)C4C3=O)ccc2Cl)C1 (stereo unspecified) | -0.8 | -4.1 | -0.4 | x | -0.8%
COc1ccc(OC)c(Nc2nc(-c3cccc([N+](=O)[O-])c3)nc3ccccc23)c1 | 7.4 | 0.5 | -29.7 | -24.9 | -1.2%
O=C(Nc1ccccc1Cl)Oc1ccc(Cl)cc1Cl | 0.6 | -3.7 | x | x | -3.1%
COc1cccc(/C=N/NC(=O)CN2C(=O)NC3NC(=O)NC32)c1 (stereo unspecified) | -0.3 | -6.2 | -8.9 | -27.5 | -0.7%
Cc1cccc(C)c1NC(=O)Nc1ccc(S(N)(=O)=O)cc1 | -1.1 | 3.9 | x | x | -8.3%
CC(=O)NC(Cc1c[nH]c2ccccc12)C(=O)N/N=C/c1ccccc1 (stereo unspecified) | 0.8 | 0.0 | 9.0 | x | 4.8%
COC(=O)c1cc(C(=O)N(Cc2ccccc2)c2ccccn2)cc([N+](=O)[O-])c1 | 1.1 | -3.4 | -2.6 | -23.2 | -1.1%
CCOc1ccc(CCNC(=O)c2cc3ccccn3n2)cc1OCC | -1.6 | 1.4 | 17.7 | -17.7 | 3.3%
COCCn1c(SCC(=O)Nc2cc(C)on2)nnc1-c1ccccc1 | 16.9 | -9.4 | x | x | x
Cc1cc(/C=C(\C#N)C(=O)O)c(C)n1CCC(C)C | 1.5 | -1.5 | x | x | 5.4%
O=S(=O)(c1ccccc1)N1C2CCC1CC(O)(c1cccnc1)C2 (stereo unspecified) | -0.5 | -6.0 | 7.9 | -39.8 | 8.5%
CC(=O)Nc1cccc(NC(C)=C(C#N)C#N)c1 | -1.6 | -3.8 | 2.8 | -33.7 | 7.5%
O=C(COC(=O)c1ccc2ccccc2n1)NCc1ccccc1 | 0.0 | -1.4 | -1.9 | x | 3.5%
O=C(NCC(=O)N(Cc1ccccc1)C(C(=O)NC1CCCC1)c1cccnc1)c1ccco1 (stereo unspecified) | 4.2 | 2.0 | -7.6 | -16.6 | 1.8%
O=C(CSc1nnc(CNC(=O)c2ccccc2F)o1)NCCc1ccccc1 | 1.6 | 66.1 | 9.4 | -10.9 | 5.2%
N#CCCn1cc(C(=O)Nc2ccccc2Br)c(-c2ccc3c(c2)OCCO3)n1 | -3.2 | 3.4 | -1.8 | -20.5 | x
COc1cc(OC)cc(C(=O)N[C@H](C(=O)Nc2ccc(F)cc2F)C(C)C)c1 | 1.0 | -5.8 | x | x | x
Cc1ccn2c(=O)cc(C)nc2c1 | -0.1 | -0.6 | 2.0 | x | -6.9%
O=c1[nH]cc(S(=O)(=O)N2CCOCC2)c(=O)[nH]1 | -1.1 | 2.1 | x | x | x
CCCn1nnnc1NCc1c(F)cccc1Cl | 1.3 | 2.8 | -5.4 | x | -4.6%
COCc1nnc(NC(=O)C(C)C)s1 | -1.0 | -16.3 | 5.3 | -14.6 | -23.3%
O=C(NCCN1CCCC1)c1ccc(CS(=O)(=O)c2c(Cl)cccc2Cl)o1 | 2.1 | -5.6 | 2.0 | -51.2 | -4.9% | Arbovirus anti repeat=2.6
Cc1ccc(CCNC(=O)C2CC(c3ccc(C(F)(F)F)cc3)=NO2)cc1 (stereo unspecified) | 3.1 | 7.7 | x | x | 10.1%
Cc1cccc(N=Nc2c(C)c(C#N)c(O)[nH]c2=O)c1 | 2.4 | 6.1 | -0.6 | x | -1.1%
N/C(=N\OC(=O)c1ccc(Br)cc1)c1ccncc1 | 0.3 | 2.6 | 7.2 | x | 7.2%
O=C(NCC(=O)N1CCC2(CC1)NCCc1[nH]cnc12)c1cccc(Cl)c1 | 0.6 | 1.0 | x | x | x
CN(C)c1ccc(/C=C/c2cccc[n+]2[O-])cc1 | x | -6.5 | x | x | -3.9%
COc1cccc(C(=O)Nc2ccc(S(=O)(=O)Nc3cc(C)nc(C)n3)cc2)c1 | 1.2 | 11.2 | -6.0 | x | -7.1%
Cc1cccc(S(=O)(=O)NCCc2ccccc2)c1 | 4.2 | -8.8 | 7.4 | x | 9.1%
CC(=O)Nc1ccc(NC(=O)CSc2ccc3nnc(CCNC(=O)c4ccccc4)n3n2)cc1 | 0.7 | 18.3 | 5.6 | x | -1.4%
CCCCNC(=O)CSc1nc2ccccc2n1S(=O)(=O)c1ccc(Br)cc1 | 1.0 | -1.1 | 0.2 | -29.1 | -10.4%
Continued:
SMILES | RecA intein inh | Mtb betalactam | Arbovirus anti | YopH PTP inh | Mtb H37Rv | others
COc1ccc(C(C)=O)cc1CN1CC=C(c2ccccc2)CC1 | -4.2 | -2.1 | x | x | x
CCN(CC)Cc1c(C(=O)OC)nnn1-c1nonc1N | -0.6 | -2.3 | 1.6 | -1.3 | -3.8% | Arbovirus anti repeat=0.8
Cc1c(C(=O)N/N=C/c2ccncc2)no[n+]1[O-] | -2.4 | -2.4 | 7.0 | x | -7.2%
Cc1cc(C)n2cc(CSc3nnc(-c4ccccc4)o3)nc2n1 | 9.1 | -12.1 | 10.9 | -18.8 | -7.5%
O=C(COC(=O)C1CC1)Nc1c(Cl)cccc1C(F)(F)F | -1.0 | 9.7 | x | x | x
O=C(NCc1ccccc1)c1cccc(S(=O)(=O)N2CCOCC2)c1 | -0.6 | 1.0 | 8.4 | -5.0 | -4.0%
O=C(Cn1ncc2c(=O)oc3ccccc3c21)N1CCCN(Cc2ccccc2F)C1 | -6.1 | -2.4 | 3.9 | -28.4 | 9.4% | Arbovirus anti repeat=-1.7
CCC(c1nnnn1C(C)(C)CC)N(CCCO)Cc1cc2cc(C)cc(C)c2[nH]c1=O (stereo unspecified) | -1.6 | x | 17.8 | 3.5 | 0.8%
COc1ccc2[nH]c(C)c(-c3csc(N)n3)c2c1 | -1.3 | 5.2 | x | x | x
CN(C(=O)COC(=O)c1cc(-c2ccco2)nc2ccccc12)C1CCS(=O)(=O)C1 (stereo unspecified) | -23.8 | -2.9 | x | x | -1.7%
CC(C)(C)NC(=O)C(c1ccc(F)cc1)N(Cc1ccccc1Cl)C(=O)c1ccn[nH]1 (stereo unspecified) | -3.8 | 1.1 | -6.6 | x | 8.4%
COc1ccc(OC)c(/C=N/NC(=O)c2ccc(N(C)S(=O)(=O)c3ccccc3)cc2)c1 | 0.9 | 6.5 | -10.0 | x | -4.1%

Overlap with the part before: four compounds, followed by the next part.
SMILES | RecA intein inh | Mtb betalactam | Arbovirus anti | YopH PTP inh | Mtb H37Rv | others
COc1ccc2[nH]c(C)c(-c3csc(N)n3)c2c1 | -1.3 | 5.2 | x | x | x
CN(C(=O)COC(=O)c1cc(-c2ccco2)nc2ccccc12)C1CCS(=O)(=O)C1 (stereo unspecified) | -23.8 | -2.9 | x | x | -1.7%
CC(C)(C)NC(=O)C(c1ccc(F)cc1)N(Cc1ccccc1Cl)C(=O)c1ccn[nH]1 (stereo unspecified) | -3.8 | 1.1 | -6.6 | x | 8.4%
COc1ccc(OC)c(/C=N/NC(=O)c2ccc(N(C)S(=O)(=O)c3ccccc3)cc2)c1 | 0.9 | 6.5 | -10.0 | x | -4.1%
CCCN=C1CC(C)(C)CC(=O)/C1=C(/O)CCC | 1.0 | 3.7 | 0.2 | x | -1.8%
Cc1cc(C(=O)CSc2nc(N)cc(N)n2)c(C)n1C1CC1 | -0.6 | 0.7 | 5.2 | x | -0.4%
CC(Oc1cc2oc(=O)c3c(c2cc1Cl)CCC3)C(=O)NCCCN1CCOCC1 (stereo unspecified) | -5.1 | 2.2 | x | x | x
CCc1ccc(NC(=O)C(=S)NC2CCCCC2)cc1 | -0.1 | 0.2 | 3.9 | x | 1.4%
CN(C)c1oc(-c2ccccc2)nc1C#N | -2.1 | -3.2 | 1.0 | 10.3 | 5.5%
COCCNC(=O)C1CCC(CNS(=O)(=O)c2ccc3c(c2)CC(C)N3C(=O)C2CC2)CC1 (stereo unspecified) | 5.5 | 0.5 | x | x | x
CC(=O)c1cc(F)c(N2CCN(C(=O)Cc3ccccc3)CC2)cc1C | 4.6 | -5.4 | 3.5 | 23.6 | 3.0%
Cc1ccc(NC(=O)CCNC(=O)c2ccc([N+](=O)[O-])cc2)cc1C | -1.1 | 55.4 | x | x | x
O=C(Nc1ccc(C(=O)N2CCOCC2)cc1)c1cc(-c2cccnc2)nc2ccc(Br)cc12 | -0.7 | 93.5 | -19.7 | x | 53.6%
C=C(C)Cc1c(C)c(C#N)c2nc3ccccc3n2c1NCCCN(C)C | -9.1 | -3.6 | x | x | x
O=C(CSc1nccc(-c2cccs2)n1)Nc1cccc(Cl)c1 | 8.3 | 3.4 | x | x | 5.0%
Cc1ccc(CC(=O)N2CCN(c3ccc([N+](=O)[O-])cc3)CC2)cc1 | 3.5 | 1.1 | x | x | x
COc1ccccc1N1CCN(C2CCCN(C(=O)C3=NN(C)C(=O)CC3)C2)CC1 (stereo unspecified) | -7.2 | -1.2 | x | x | x
CC(C)N(NC(=O)c1cccc2ccccc12)C(C)C | 0.1 | -9.2 | 20.5 | x | -0.2%
